From PubChem
KCNQ2 pot = potentiators of rat KCNQ2 potassium channel | CHO-K1 KCNQ2, FluxOR thallium flux fluorescence; hits give high values | hit rate 0.54% among 310,000 | B-score at 10 µM;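 active means fluorescence ratio B-score at least 3 SD of library B-scores, with initial fluorescence B-score within 3 SD, cut at about 5.3 in these data; same plate scores as AID 2156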;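 further: B-score of peak minus minimum over baseline fluorescence ratio after K+ and Tl+ stimulus; positive B-score means potentiation of KCNQ2 with more thallium influx and brighter signal; only the inactives scoring about 0 or higher are listed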
Target sequence (O88943 whole entry, looked up): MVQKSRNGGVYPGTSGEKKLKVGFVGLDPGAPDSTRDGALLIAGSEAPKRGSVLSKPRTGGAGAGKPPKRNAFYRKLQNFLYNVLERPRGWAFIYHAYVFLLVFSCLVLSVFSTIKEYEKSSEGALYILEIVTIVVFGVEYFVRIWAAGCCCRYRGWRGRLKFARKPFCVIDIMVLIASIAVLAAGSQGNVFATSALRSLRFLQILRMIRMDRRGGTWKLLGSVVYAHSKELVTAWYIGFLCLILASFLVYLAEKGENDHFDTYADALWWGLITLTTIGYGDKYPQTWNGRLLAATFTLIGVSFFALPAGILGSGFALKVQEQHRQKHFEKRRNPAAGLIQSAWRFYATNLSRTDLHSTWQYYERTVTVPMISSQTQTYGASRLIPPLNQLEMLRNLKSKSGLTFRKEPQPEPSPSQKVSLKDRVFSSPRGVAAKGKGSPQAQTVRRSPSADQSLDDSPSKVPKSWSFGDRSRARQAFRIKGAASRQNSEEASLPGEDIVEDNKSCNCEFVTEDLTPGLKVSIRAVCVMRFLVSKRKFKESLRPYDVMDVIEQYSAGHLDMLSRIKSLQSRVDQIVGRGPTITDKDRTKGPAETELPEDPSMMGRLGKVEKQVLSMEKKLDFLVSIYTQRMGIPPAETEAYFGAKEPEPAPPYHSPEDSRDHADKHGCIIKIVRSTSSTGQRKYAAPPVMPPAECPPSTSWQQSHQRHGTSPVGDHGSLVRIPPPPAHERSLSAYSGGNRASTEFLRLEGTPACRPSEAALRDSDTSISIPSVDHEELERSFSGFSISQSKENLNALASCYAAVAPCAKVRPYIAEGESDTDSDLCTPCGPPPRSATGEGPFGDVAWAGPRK
KCNQ2 pot baseline = recorded beside KCNQ2 pot, whose call it bears; B-score; compound at 10 µM; measured here: initial fluorescence intensity artifact check;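 brightness before thallium and not channel activity; 0 = typical well and far values either way flag optical interference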
An asterisk follows results filed as active.

canonical_smiles	KCNQ2 pot	KCNQ2 pot baseline
O=S(=O)(c1ccc(F)cc1)N1CCC2(CC1)OCCN2S(=O)(=O)c1cccs1	0.02	-0.28
CCOC(=O)c1c(CC(C)C)csc1/N=C/C1=C(O)CCCC1=O	1.3	0.06
O=c1c(-n2cncn2)c[nH]n1-c1cccc(Cl)n1	0.84	0.66
CCOC(=O)Cn1cc(C(=O)C(=O)N2CCOCC2)c2ccccc21	0.05	2.7
CC(=O)Nc1ccc(OCC(O)Cn2c3ccccc3c3ccccc32)cc1 (configuration not stated)	3.2	0
N#Cc1ccccc1S(=O)(=O)N1CCN(c2ccc(S(=O)(=O)N3CCOCC3)cn2)CC1	0.39	-3
O=C(O)CCn1c2ccccc2c2nc3ccccc3nc21	0.33	-2.7
O=C1C(C2=NC(C(=O)O)C3C(=O)N(c4ccccc4)C(=O)C23)=C(O)c2ccccc21 (configuration not stated)	0.82	0.2
CCOc1ccc(S(=O)(=O)Nc2cccc(C(=O)N3CCN(c4ccc(OC)cc4)CC3)c2)cc1	0.19	-0.72
CN(C)CCNc1ncnc2sc(-c3ccccc3)cc12	2.2	-1.3
Cc1ccc(Nc2cc(-n3nc(C)cc3C)ncn2)cc1	1.4	0.68
O=C(/C=C/c1cccc(Cl)c1)NCc1cccs1	0.51	0
Cc1ccc(S(=O)(=O)N2CCOCC2)cc1C(=O)NC(=S)N1CC(C)OC(C)C1 (configuration not stated)	2.7	0.35
CCCCC1CCC(C(=O)Nc2ccccc2)CC1 (configuration not stated)	1.3	0.18
COc1cccc(CNC(=O)C2CCCN2S(=O)(=O)c2ccc3c(c2)C(C)(C)C(=O)N3C)c1 (configuration not stated)	1.4	-0.75
Cc1cc(C#Cc2c(-c3ccccc3)n(C)c3ccccc23)ccc1F	0.71	2.3
CCc1ccc(N2C(=O)c3sc4nnc(-c5ccccc5)c(=O)n4c3C2=O)cc1	1.6	0
O=C(O)C1CC=CCC1C(=O)NNc1ccccc1 (configuration not stated)	1.4	0.11
CC(=O)O[C@H]1[C@H](C)OC=C[C@@H]1OC(C)=O	0.26	1.4
Cc1cc(NC(=O)CN2C(=O)CC(c3ccco3)Sc3ccccc32)no1 (configuration not stated)	1.1	-1.1
O=c1[nH]c2cc3c(cc2cc1CN(CCO)S(=O)(=O)c1ccccc1Cl)OCCO3	3.2	0.01
CCCn1c(=O)[nH]c(=O)c2c1nc(-c1cccs1)n2CCOC	0.66	-0.47
CCc1nnc(NC(=O)C2CC(=O)N(CCc3ccccc3)C2)s1 (configuration not stated)	0.59	-0.22
C(=N\C(/N=C/c1ccco1)c1ccco1)/c1ccco1	0.08	0.36
CCC(CC)=C(C#N)C(=O)NC1CCCCC1	0.09	-1.7
COc1ccc(N(CC(=O)NC2CCCCC2)C(=O)CCCC(=O)Nc2ccccn2)c(OC)c1	1.5	0.61
Cc1ccccc1NC(=S)N1CCC(C(=O)c2ccc(F)cc2)CC1	0.93	-0.83
CC(C)Oc1cccc(C(=O)NC2=NCCS2)c1	0.29	-0.26
N=C(N=C(N)N)N1CCc2ccccc21	0.44	0.17
CCS(=O)(=O)N1CCC(C(=O)Oc2ccccc2Cl)CC1	0.12	1.7
CCn1c(=N)n(CC(=O)OC)c2ccccc21	0.31	1.1
Cc1ccc(NC(=O)c2ccccc2NC(=O)CCC(=O)O)cc1	0.03	-2.4
O=S(=O)(c1ccc2c(c1)nc1n2CCC1)N1CCOCC1	0.41	-2.8
CCCCC(=O)NC(=S)NNC(=O)CC#N	1.8	-0.28
c1ccc(COc2cccc(CNn3cnnc3)c2)cc1	0.39	-0.93
COc1ccc(-c2cccc(NC(=O)COc3ccc(Cl)cc3)c2)nn1	0.58	-0.62
COc1ccc(C(=O)N/C(=C\c2cn(S(=O)(=O)N(C)C)c3ccccc23)C(=O)N2CCOCC2)cc1	0.1	1.1
Cc1cc(-c2nnc(CCC(=O)N(CC3CCC3)CC3CCCO3)o2)no1 (configuration not stated)	0.26	0.13
COc1cc(C(=O)N/C(=C\c2cn(S(=O)(=O)N(C)C)c3ccccc23)C(=O)NCCCO)cc(OC)c1OC	1.1	-0.04
Cc1c[nH]c2cccc(OCC(O)CNC(C)(C)C)c12 (configuration not stated)	1.4	1.4
NS(=O)(=O)c1ccc(NC(=O)COC(=O)CCc2ccccc2)cc1	1.4	-1.2
CCOCCCNC(=O)C(NC(=O)c1ccc(NC(C)=O)cc1)c1ccc(OC)cc1 (configuration not stated)	0.63	1.2
O=C(NCc1ccco1)C1(S(=O)(=O)c2ccc(Cl)cc2)CC1	0.06	-1.9
COc1ccc(-c2c(C)c3cc(O)ccc3oc2=O)cc1	0.52	1.6
Nc1nc(-c2cccnc2)nc(N2CCCCC2)n1	1.9	0.92
Cc1cc(C(=O)N/N=C/c2ccc(-c3ccc(C)c(Cl)c3)o2)n[nH]1	0.53	0.06
CCCNC(=O)c1ccc(S(N)(=O)=O)cc1	0.14	0.19
CCN(CC)C(=O)C1CCCN(c2ccccc2[N+](=O)[O-])C1 (configuration not stated)	0.89	0.01
CCOc1ccc(N2CC(C(=O)N/N=C/c3sccc3C)CC2=O)cc1 (configuration not stated)	0.85	0.44
Cc1ccc(C(=O)N(CC(=O)Nc2ccc(Cl)c(Cl)c2)Cc2ccco2)cc1	0.5	2.6
O=C(Cn1cc2c(n1)CCCC2)NC1CCN(Cc2ccccc2)CC1	0.56	0.22
CCCn1nnc(NC(=O)c2ccc(-c3cc(Cl)ccc3Cl)o2)n1	1.4	-1.6
CCOc1ccccc1NC(=O)c1cnc2n(c1=O)CCS2	1.1	3.8
CCn1cc(C(=O)NCCCN2CCC(C)CC2)c2cc(OC)c(OC)cc2c1=O	1.4	-0.05
CCOC(=O)CSc1nnc2cc(C)c3ccccc3n12	0.03	1
N/C(=N\OC(=O)COc1ccccc1)c1ccc(Cl)cc1	0.12	2.4
Cc1cc(S(=O)(=O)NCCCn2ccnc2)c(C)cc1Cl	0.04	0.83
O=C(c1cccc([N+](=O)[O-])c1)N1CCN(C/C=C/c2ccccc2)CC1	0.09	-0.7
C/C(=N\NC(=O)C1(C)CC1(Br)Br)c1cccc(NC(=O)C(C)(C)C)c1 (configuration not stated)	1.4	1.3
CCCOC(=O)c1c(NC(=O)/C=C/c2cnn(C)c2C)sc(C(=O)OCC)c1C	1.1	-0.2

The listing continues:
canonical_smiles	KCNQ2 pot	KCNQ2 pot baseline
O=C(NCc1ccco1)c1nc2c(nnn2Cc2cccc(Cl)c2)c(=O)[nH]1	0.72	0.12
CCCc1[nH]n(-c2ccc([N+](=O)[O-])cc2)c(=O)c1C=NCCc1ccc(OC)c(OC)c1	1.2	0.18
O=C(Cc1n[nH]c(=O)c2ccccc12)NCc1ccccc1	0.19	0.58
COc1ccc(/C=N/NC(=O)c2cccnc2)cc1CN1CCc2ccccc2C1	0.15	-0.51
O=C(Nc1ccccc1O)c1ccccc1O	0.52	-1.1
COc1ccc([N+](=O)[O-])cc1NC(=O)c1ccc(Br)s1	0.44	1.1
Cc1onc(-c2ccccc2Cl)c1C(=O)OCc1cnc(Cl)s1	0.68	0.01
Cc1cc(NC(=O)c2cccc(F)c2)ncc1NC(=O)c1ccco1	0.09	1.5
O=C(CNCc1ccc(Cl)cc1)NCc1ccco1	0.16	1.2
CCn1c(SCC(=O)Nc2ccc(NC(C)=O)cc2)nnc1C1CC1	0.97	-0.04
O=C(NCCN1CCCC1)c1ccc(Cl)cc1Cl	2.8	0.16
O=C(NC1CCS(=O)(=O)C1)c1ccc(S(=O)(=O)N2CCCCC2)cc1 (configuration not stated)	0.95	-0.14
O=C(Oc1cccc(F)c1)c1ccc2c(=O)n3c(nc2c1)CCC3	0.11	0.4
CCc1ccccc1N(CC(=O)NCCc1ccccc1)C(=O)CCC(=O)Nc1ccccn1	0.02	-0.53
CCC(C)c1ccc(NC(=O)C2CCCN(c3ncccn3)C2)cc1 (configuration not stated)	0.14	-0.21

By substructure, those above containing fluorine
canonical_smiles	KCNQ2 pot	KCNQ2 pot baseline
O=S(=O)(c1ccc(F)cc1)N1CCC2(CC1)OCCN2S(=O)(=O)c1cccs1	0.02	-0.28
Cc1cc(C#Cc2c(-c3ccccc3)n(C)c3ccccc23)ccc1F	0.71	2.3
Cc1ccccc1NC(=S)N1CCC(C(=O)c2ccc(F)cc2)CC1	0.93	-0.83
Cc1cc(NC(=O)c2cccc(F)c2)ncc1NC(=O)c1ccco1	0.09	1.5
O=C(Oc1cccc(F)c1)c1ccc2c(=O)n3c(nc2c1)CCC3	0.11	0.4

(further entries)
canonical_smiles	KCNQ2 pot	KCNQ2 pot baseline
O=c1[nH]c(N2CCCCC2)nc2ncn(Cc3ccccc3)c12	1.1	0.36
Cc1ccccc1Nc1nc(-c2sc(NC(=O)c3cccc(Cl)c3)nc2C)cs1	0.34	-0.96
CCn1c2ccccc2c2cc(NC(=O)CSc3nnc(-c4cccc(Cl)c4)o3)ccc21	1.1	-0.05
CN(C)CCn1c(NC(=O)c2ccc(Cl)cc2)nc2ccccc21	1.4	-1
COc1ccc(-n2c(SCC(=O)N/N=C(\C)c3cccnc3)nc3ccccc3c2=O)cc1	1.2	-0.84
Cc1ccc(Cn2nnc3c(=O)[nH]c(C4CCCN(S(=O)(=O)c5ccccc5)C4)nc32)cc1 (configuration not stated)	1.4	-0.72
CC(=O)Oc1ccc(C(=O)Nc2ccccc2C(=O)Nc2ccc(C(=O)O)cc2)cc1	0.51	1.5
COc1ccc(/C=C(\NC(=O)c2ccc(C)cc2)C(=O)NCCN2CCOCC2)cc1	1.1	0.22
CC(CN1CCCCC1)OC(=O)Cc1ccc(Cl)cc1 (configuration not stated)	0.05	1.4
CC1=C([N+](=O)[O-])C(c2ccc(Cl)cc2)NC(=O)N1 (configuration not stated)	1.5	-3
CCc1nnc(NC(=O)c2cc(S(=O)(=O)N(C)c3ccc(OC)cc3)ccc2Cl)s1	0.4	0.14
CC1CCCC(NC(=O)COC(=O)CCSc2ccccc2)C1C (configuration not stated)	2.7	0.07
Cc1noc(C)c1C(=O)Nc1ccc(F)c(F)c1	0.78	0.9
CCOc1c2ccc(C(=O)N[C@H](C)C3CCCCC3)cc2nn1CCOC	0.96	0.1
O=C(O)Cc1cc(I)c(Oc2ccc(O)c(I)c2)c(I)c1	9.9*	0.19*
O=C(c1cccc(-c2ccccc2F)c1)N1CC[C@@H](N2CCC(O)CC2)[C@H](O)C1	0.78	0.87
Cc1ccc(C)c(N2C(=O)CN=C2Nc2ccccc2Cl)c1	0.73	-0.48
COc1cc(C(=O)Nc2ccc(C)cc2C(NCC(=O)NN)c2ccccc2)cc(OC)c1OC (configuration not stated)	0.38	-3.1
COc1ccc(/C=N\NS(=O)(=O)c2ccc(C)cc2)cc1COc1ccccc1[N+](=O)[O-]	1.1	0.63
O=C(Cn1cncn1)N/N=C/c1ccccc1O	0.21	0.56
COc1ccc(S(=O)(=O)Nc2ccccc2C(=O)N2CCOCC2)cc1OC	0.13	0.28
O=C(OCC(=O)N1CCCCCC1)c1ccc([N+](=O)[O-])cc1Cl	0.81	1.7
CCN(CC)c1cc2nc(C)n(Cc3ccccc3)c(=O)c2cc1NC(=O)C1CC1	2.1	-0.89
Cc1n[nH]c(C)c1S(=O)(=O)N1CCN(C2CCCCC2)CC1	1.1	0.59
O=C(CCc1ccccc1)Nc1ccccc1	0.68	-0.07
Cc1cccc(N2N=C(C(=O)N3CC(=O)Nc4ccccc43)CCC2=O)c1	0.2	1.6
O=[N+]([O-])c1cc([N+](=O)[O-])c(Oc2cc(F)cc(F)c2F)cc1NN1CCCCC1	0.06	0.09
O=C(Nc1ccc(Oc2cccnc2)cc1)c1ccc([N+](=O)[O-])cc1	0.22	-0.56
CCOC(=O)C1(Cc2ccccc2C)CCCN(C(=O)c2ccc3nccnc3c2)C1 (configuration not stated)	0.46	0.01
COc1ccc(-c2csc(NC(=O)CSc3nc(C)cs3)n2)cc1	1.2	-0.94

Reformatted field by field: part of the list above
COc1ccc(/C=N\NS(=O)(=O)c2ccc(C)cc2)cc1COc1ccccc1[N+](=O)[O-]
  KCNQ2 pot: 1.1
  KCNQ2 pot baseline: 0.63
O=C(Cn1cncn1)N/N=C/c1ccccc1O
  KCNQ2 pot: 0.21
  KCNQ2 pot baseline: 0.56
COc1ccc(S(=O)(=O)Nc2ccccc2C(=O)N2CCOCC2)cc1OC
  KCNQ2 pot: 0.13
  KCNQ2 pot baseline: 0.28

(list continues)
canonical_smiles	KCNQ2 pot	KCNQ2 pot baseline
COc1ccc(CNC(C)C2COc3ccccc3O2)c(OC)c1 (configuration not stated)	0.31	1.2
COc1ccc(N2CC(C(=O)N[C@@H](C)C(=O)NC3CCCCC3)CC2=O)cc1 (some centres not stated)	0.28	0.13
O=C(c1ccc(N2CCN(C3CC(=O)N(c4ccc(F)cc4)C3=O)CC2)cc1)c1cccnc1 (configuration not stated)	1.1	-0.24
COc1ccccc1NC(=O)CSc1nc2ccccc2n1C(C)=O	0.74	-1.5
CC(C)OCCCNC(=O)C(C)Oc1ccccc1 (configuration not stated)	0.45	-2.7
O=C(COc1ncnc2ccc(Br)cc12)N1CCOCC1	0.98	-0.24
CCN(CCCNC(=O)CCCOc1cc(=O)n(C)c2ccccc12)Cc1ccccc1	0.97	0.96
Cn1c(-c2cccc3ccccc23)n[nH]c1=S	0.27	0
CCOC(=O)Cc1cc(OC)c(OC)cc1Cc1cc(OC)c(OC)cc1CC(=O)OCC	1.3	0.15
CC(C)NC(=S)N1CCn2c(nc3ccccc32)C1	2	1.4

The list is partial; rates above refer to the full screens.
